Source: PubChem BioAssay (ICCB-Longwood Screening Facility, Harvard Medical School)
Mtb MbtI inh: MbtI salicylate synthase inhibitors, primary screen, biochemical, fluorescence intensity. 0.89% of 100,000 active. purified MbtI enzyme, fluorescence intensity read-out. inhibition, %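 (about 17 µg/mL by stock and volumes)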. P9WFX0;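 active = above 50% in both replicates, above 80% if mildly self-fluorescent; inactive = the rest, strongly fluorescent compounds included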;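 note: 0% = mean of negative and 100% = mean of positive controls; one replicate is shown; some compounds called inactive have numbers as strong as hits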
Target sequence (P9WFX0 whole entry, looked up): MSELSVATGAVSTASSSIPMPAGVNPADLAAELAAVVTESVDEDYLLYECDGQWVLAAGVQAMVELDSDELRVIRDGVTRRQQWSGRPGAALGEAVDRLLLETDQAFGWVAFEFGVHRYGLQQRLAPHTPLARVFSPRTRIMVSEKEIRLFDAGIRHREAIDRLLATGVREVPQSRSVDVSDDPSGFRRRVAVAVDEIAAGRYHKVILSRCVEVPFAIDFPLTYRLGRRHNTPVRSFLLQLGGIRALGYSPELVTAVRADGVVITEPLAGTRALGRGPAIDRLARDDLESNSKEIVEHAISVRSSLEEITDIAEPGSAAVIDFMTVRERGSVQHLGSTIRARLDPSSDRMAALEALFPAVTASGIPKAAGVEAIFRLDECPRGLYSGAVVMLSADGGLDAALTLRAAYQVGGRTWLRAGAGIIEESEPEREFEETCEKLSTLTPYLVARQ
Polio RdRp inh: poliovirus RdRp elongation inhibitors, primary screen, biochemical, fluorescence polarization, total intensity. Genome polyprotein (Poliovirus type 1 (strain Mahoney)), P03300. poliovirus polymerase elongation; hits give low values. % elongation, % (compound at 16.7 µg/mL). 0.66% of 150,000 active. AID 588519, 2011; in the data active = % elongation below about 90%; note: some results filed as inactive read as strong as hits
Mtb MenB inh: M. tuberculosis MenB inhibitors, primary screen, biochemical, absorbance; 1,4-dihydroxy-2-naphthoyl-CoA synthase (Mycobacterium tuberculosis (strain ATCC 25618 / …; MenB enzyme assay, absorbance read-out; some hits fall short of the stated cut; inhibition, %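 (about 12 µg/mL by stock and volumes)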; 0.43% of 100,000 active; AID 540299, 2011;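 active = mean of two replicates above 30%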;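 note: 0% = no compound and 100% = wells with inactive enzyme; the first replicate is given; strong numbers were not always called active; inactives centre near -10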
Target sequence (P9WNP5 whole entry, looked up): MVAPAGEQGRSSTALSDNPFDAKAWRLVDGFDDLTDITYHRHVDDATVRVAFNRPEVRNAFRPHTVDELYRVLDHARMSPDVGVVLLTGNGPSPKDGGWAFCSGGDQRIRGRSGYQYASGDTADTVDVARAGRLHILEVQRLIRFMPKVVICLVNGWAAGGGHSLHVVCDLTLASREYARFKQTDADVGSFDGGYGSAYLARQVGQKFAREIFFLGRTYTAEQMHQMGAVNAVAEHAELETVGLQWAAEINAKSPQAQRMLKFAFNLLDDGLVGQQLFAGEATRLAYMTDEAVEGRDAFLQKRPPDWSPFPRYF
Polio RdRp inh intensity: second read-out of Polio RdRp inh, no call of its own (marks repeat the call); % elongation; measured here: total intensity read-out; formula for this scale not given here;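 total fluorescence in place of polarization; lower means less elongation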
Numbers without * were called inactive; nt = not tested or not shown; & = joins results of further samples. Random draw from the library; 1.8% or so of the library scored in one or more.

Sample of the layout:
SMILES	Mtb MbtI inh	Polio RdRp inh	Polio RdRp inh intensity	Mtb MenB inh
Clc1ccc2oc(-c3ccccc3)c/c(=N\c3nccs3)c2c1	-4	100	109	-4
N#Cc1c(N)nc2c(c1-c1ccccc1)CCCC2	-47	101	101	17
S=C(NCCSc1ccc(Cl)cc1)Nc1cccc(Cl)c1	-4	101	96	-79
CC(C)(C)C(=O)Nc1scc(-c2cccs2)c1C(=O)O	nt	106	111	-5
CN(C(=O)CSc1n[nH]c(N)n1)C1CCCCC1	-10	99	93	-35
C=CCn1c(CSc2nc(N)cc(N)n2)n[nH]c1=S	68	102	104	-1
O=C(NC(=S)Nc1ncccn1)c1ccc(F)cc1	1	103	106	-10
CNC(=O)c1ccc2c(c1)CCN2S(C)(=O)=O	-2	100	102	15
N#Cc1ccccc1NC(=O)Nc1cc(-c2cccs2)nn1-c1ccc(I)cc1	-3	100	104	-68
O=C(NCc1cccc(Cl)c1)c1ccc(COc2ccc(Cl)cc2)o1	nt	103	107	-24
Cc1cc2c3c(C)n(Cc4ccccc4)c(C)c3c(C)nn2c1	-22	103	110	-20
CNc1ccc(Cl)nn1	48	104	101	-28
CCn1nnc2c(N3CCC(O)CC3)ncnc21	39	103	105	-66
O=C1CNC(=S)N1CCc1ccccc1	-1	123	127	-10
CSc1nc2sc3c(c2c(=O)n1-c1ccccc1)CCN(C(C)=O)C3	5	101	104	16
Cc1cc(C2N=C(N)Nc3nc4ccccc4n32)c(C)n1-c1ccccc1F (configuration not stated)	9	102	105	-7
COc1ccc(OC(=O)c2csc(COc3ccc4nonc4c3)n2)cc1	-1	104	96	7
CC(C)N(Cc1ccccc1)C(=O)Cc1noc2ccccc12	-4	104	106	-20
Cc1ccn2cc(CCNC(=O)CC(C)(C)C)nc2c1	105	102	105	0
c1ccc(C2CC(c3ccco3)n3ncnc3N2)cc1 (configuration not stated)	-7	101	105	-4
COc1ccc2cc(/C(C)=N/n3c(=S)[nH][nH]c3=S)ccc2c1	99	103	101	-47
Cc1ccc(S(=O)(=O)NC(=O)c2cc(C)n(CCCN3CCOCC3)c2C)cc1	-6	100	107	-13

The whole of this part, repeating the preview:
SMILES	Mtb MbtI inh	Polio RdRp inh	Polio RdRp inh intensity	Mtb MenB inh
Clc1ccc2oc(-c3ccccc3)c/c(=N\c3nccs3)c2c1	-4	100	109	-4
N#Cc1c(N)nc2c(c1-c1ccccc1)CCCC2	-47	101	101	17
S=C(NCCSc1ccc(Cl)cc1)Nc1cccc(Cl)c1	-4	101	96	-79
CC(C)(C)C(=O)Nc1scc(-c2cccs2)c1C(=O)O	nt	106	111	-5
CN(C(=O)CSc1n[nH]c(N)n1)C1CCCCC1	-10	99	93	-35
C=CCn1c(CSc2nc(N)cc(N)n2)n[nH]c1=S	68	102	104	-1
O=C(NC(=S)Nc1ncccn1)c1ccc(F)cc1	1	103	106	-10
CNC(=O)c1ccc2c(c1)CCN2S(C)(=O)=O	-2	100	102	15
N#Cc1ccccc1NC(=O)Nc1cc(-c2cccs2)nn1-c1ccc(I)cc1	-3	100	104	-68
O=C(NCc1cccc(Cl)c1)c1ccc(COc2ccc(Cl)cc2)o1	nt	103	107	-24
Cc1cc2c3c(C)n(Cc4ccccc4)c(C)c3c(C)nn2c1	-22	103	110	-20
CNc1ccc(Cl)nn1	48	104	101	-28
CCn1nnc2c(N3CCC(O)CC3)ncnc21	39	103	105	-66
O=C1CNC(=S)N1CCc1ccccc1	-1	123	127	-10
CSc1nc2sc3c(c2c(=O)n1-c1ccccc1)CCN(C(C)=O)C3	5	101	104	16
Cc1cc(C2N=C(N)Nc3nc4ccccc4n32)c(C)n1-c1ccccc1F (configuration not stated)	9	102	105	-7
COc1ccc(OC(=O)c2csc(COc3ccc4nonc4c3)n2)cc1	-1	104	96	7
CC(C)N(Cc1ccccc1)C(=O)Cc1noc2ccccc12	-4	104	106	-20
Cc1ccn2cc(CCNC(=O)CC(C)(C)C)nc2c1	105	102	105	0
c1ccc(C2CC(c3ccco3)n3ncnc3N2)cc1 (configuration not stated)	-7	101	105	-4
COc1ccc2cc(/C(C)=N/n3c(=S)[nH][nH]c3=S)ccc2c1	99	103	101	-47
Cc1ccc(S(=O)(=O)NC(=O)c2cc(C)n(CCCN3CCOCC3)c2C)cc1	-6	100	107	-13
Cc1cccc(N/C=C2/CCCCC2=O)c1	-6	98	102	-34
COc1cccc(/C=N/N(C)C2=NS(=O)(=O)c3ccccc32)c1O	-11	103	102	-16
CN1CCC2(CC1)N=C(c1ccccc1)C(=S)N2	15	101	105	-23

Further structures follow.
SMILES	Mtb MbtI inh	Polio RdRp inh	Polio RdRp inh intensity	Mtb MenB inh
CCCc1nc2ccccc2n1CC(=O)Nc1ccc(OC)cc1OC	-6	100	106	nt
O=C(NC12CC3CC(CC(C3)C1)C2)n1ncc2cc(Cl)ccc21	-2	104	97	-26
CCc1nc2cccnc2n1-c1ccc(CC(=O)NC2CCCC2)cc1	2	103	105	-21
Oc1c(Cl)cc(Cl)cc1C(O)(C(F)(F)F)C(F)(F)F	nt	106	93	-18
O=C(OCC(=O)N1CCc2ccccc21)c1ccccc1O	20	100	99	nt
CCN1C(=O)/C(=C/c2cn(CC)c3ccccc23)NC1=S	9	109	116	-85
CCOc1cc(CN2CCN(C(=O)CC(C)C)CC2)ccc1OC	nt	102	107	-15
Cn1cc(NC(=O)NC2CCCCC2)c2ccccc2c1=O	-5	22*	28*	-25
Cc1ccc(CN(CC(=O)NC2CCCC2)C(=O)CSc2nnc(COc3ccccc3)o2)cc1	69	100	98	-6
CCCN(C)C(=O)c1cc2ccccc2oc1=O	-9	100	101	-20
Cc1cc(C)n(C(=O)c2ccc(NC(=O)CC(C)C)cc2)n1	3	102	99	0
COC(=O)c1ccc(CO)nc1	6	100	100	-12
O=C(CO/N=C/c1ccccc1OC(F)F)N1CCCc2ccccc21	-6	106	103	10
C#CCNc1nc(CC(C)C)nc2c1nnn2Cc1ccccc1	-9	102	105	2
CN(C)S(=O)(=O)c1ccc(C(=O)OC2CCCC2)cc1	-25	100	97	15
CCOC(=O)CSc1nc(-c2ccc(C)cc2)ns1	2	99	102	7
COc1ccc(N2CC(C(=O)OC(C)C(=O)c3ccccc3)CC2=O)cc1 (configuration not stated)	nt	100	103	-5
CN(C)S(=O)(=O)c1ccc(C(=O)OCC(N)=O)cc1	-6	103	105	-6
O=C(NC1CCCC1)C1CCCN1C(=O)OCc1ccccc1 (configuration not stated)	-4	101	103	-17
Cc1cccc(NC(=O)NCC(c2ccco2)N2CCc3ccccc3C2)c1 (configuration not stated)	1	105	97	-23
Cc1nn(-c2ccccc2)c(C)c1NC(=O)CN1CC(C)OC(C)C1 (configuration not stated)	-6	104	107	-25
CCS(=O)(=O)NCC(c1ccco1)N1CCN(c2ccc(F)cc2)CC1 (configuration not stated)	-3	105&103	112&102	2
Cn1cnnc1SCC(=O)O	-23	101	102	-15
CN(C)C=Nc1ccccc1C1C=NNC1=O (configuration not stated)	0	114	112	-85
N#Cc1ccccc1COC(=O)C1COc2ccccc2O1 (configuration not stated)	-2	99	102	-12

(more compounds)
SMILES	Mtb MbtI inh	Polio RdRp inh	Polio RdRp inh intensity	Mtb MenB inh
O=C(CSc1nc(=O)n2ccccc2n1)N1CCCC1	2	105	96	-20
CCc1ccc(OCC(=O)NCCN2CCOCC2)cc1	-4	103	102	8
NC1=NN(c2ccccc2)C(=O)C1	nt	102	107	-65
Cc1c(C#N)sc(-c2ncn[nH]2)c1C	-105	103	105	-7
CCOC(=O)N1CCN(c2cc(N3CCC(C)CC3)c3c4c(onc24)-c2ccccc2C3=O)CC1	-4	113	176	-25
CCN(CC)c1nc(Nc2ccccc2)nc(Oc2ccc(=O)[nH]n2)n1	5	100	102	-75
O=P1(N(CCCl)CCCl)NCCCO1 (configuration not stated)	-3	97	100	8
COc1cccc(C2c3c(oc4ccccc4c3=O)C(=O)N2CCCN2CCOCC2)c1 (configuration not stated)	33	105	107	-21
CCC(C(=O)N(C)c1ccccc1)c1ccccc1 (configuration not stated)	nt	102	100	5
COc1cccc(C(=O)NCCN2CCN(c3nccc(C(F)(F)F)n3)CC2)c1	-7	104	111	-14
O=C(c1cc(-c2ccccc2)c(N2CCCCC2)s1)n1ccnc1	-4	103	103	-45
Nc1cc(C2CCCC2)nn1-c1ccccc1	-9	101	103	-30
O=C(OCc1cc(F)cc2c1OC(c1ccccc1)OC2)C1CC(=O)N(Cc2ccco2)C1 (configuration not stated)	1	109	104	-8
CC1CCCC(NC(=O)CSc2ccc3c(c2)OCCO3)C1C (configuration not stated)	-8	104	99	-30
Cc1nn(CC(C)C)c(Cl)c1/C=C1/C(=O)N(C)C(=S)N1C	43	104	107	-39
O=C(NC1CCN(c2ncccn2)CC1)C1CC1	-18	98	101	1
O=C(NCc1ccccn1)C1CCC(CNS(=O)(=O)c2ccc(F)cc2)CC1 (configuration not stated)	5	91	109	6
Cc1ccc(OCc2nc3ccc(N)cc3[nH]2)cc1	6	100	102	1
O=C1c2ccccc2C(=O)N1C(CO)C(O)c1ccccc1 (configuration not stated)	-5	106	102	5
Cc1cc2c(n1-c1ccc(C(=O)NCc3cccs3)cc1)CCC(C)C2 (configuration not stated)	-11	105	105	-13
CCc1nc2ccccc2n1CC(C)C(=O)O (configuration not stated)	-1	102	103	16
CCn1c(C(=O)NCCCN2CCc3ccccc3C2)cc2sccc21	-2	103	106	-14
N#C/C(=C\c1ccccc1O)S(=O)(=O)c1ccc(Cl)cc1	9	108	114	-15
CC(O)CNC(=O)Cc1cc(=O)[nH]c(=O)[nH]1 (configuration not stated)	-7	106	106	-37
COc1cc2ncc(C(=O)c3ccccc3)c(N3CCOCC3)c2cc1OC	-4	103	106	-35

Additional entries follow.
SMILES	Mtb MbtI inh	Polio RdRp inh	Polio RdRp inh intensity	Mtb MenB inh
Cc1ccc(CC(=O)OC(C)C(N)=O)cc1C (configuration not stated)	-1	100	108	-10
CCOP(=O)(c1ccccc1)C1(O)CCCCC1 (configuration not stated)	-6	100	103	-7
O=C1NC2(CCCCC2)N(C(=O)c2ccccc2F)C2=C1CCCC2	14	101	103	-16
CCNC(=O)C1CCCN1S(=O)(=O)c1ccc(C)cc1 (configuration not stated)	-1	100	101	-5
O=C1CC(c2ccc3c(c2)OCO3)CC2=C1C(c1ccncc1)Nc1ccccc1N2 (configuration not stated)	-4	105	99	-11
Cc1cc(C)n(C(=O)CC#N)n1	4	101	101	-30
N#Cc1c(C(F)(F)F)cc(-c2ccccc2)nc1SCC(N)=O	-4	100	101	6
Cc1cc(=O)cc(C)n1-c1ccccc1	-14	105	110	nt
CC1CCCCN1CCNc1nc(=S)[nH]c2ccccc12 (configuration not stated)	17	101	102	-10
C/C(CCc1oc2ccccc2c1-c1ccc(C)o1)=N\O	39	102	108	-27
Cc1cccc(N2CCN(C(=O)C(NC(=O)c3c(F)cccc3F)C(C)C)CC2)c1C (configuration not stated)	5	102	98	-14
CC(=O)N1CC(C(=O)NC2CCCCCC2)Oc2ccccc21 (configuration not stated)	2	112	113	-12
COC(=O)C(NC(=O)Nc1ccccc1OC)C(C)C (configuration not stated)	-7	97	99	-68
COc1ccc(-c2ocnc2C(=O)NC2CCCc3ccccc32)cc1 (configuration not stated)	21	99	102	-21
CCOC(=O)/C(C#N)=C/C1=C(N)CC(C)(C)OC1	88	104	101	-6
O=C(c1cc2c(Cl)nc3ccccc3c2s1)N1CCCC1	3	100	104	-5
O=c1c2snc(-c3ccc(Cl)cc3)c2ncn1C1CC1	-4	100	99	-4
N#CCn1c(CN2CCOCC2)nc2ccccc2c1=O	1	114	128	-8
CCC(C)c1ccc(S(=O)(=O)N2CCN(C(C)CC(=O)O)CC2)cc1 (configuration not stated)	-47	98	94	-29
CCOc1ccccc1/C=N/NC(=O)c1ccccc1O	-81	101	102	-157
CCN(Cc1ccncc1)C(=O)c1ccc(F)cc1F	1	101	98	nt
